High-throughput results (PubChem)
Rango dissoc inh – inhibition of RanGTP-driven Rango-importin beta dissociation | Biochemical FRET Rango-importin beta, RanGTP-induced dissociation | Potency, µM (titrated, usually from 46.1 µM), inactives show at the highest dose activity change, negative = inhibition | 0.071% of 340,000 active; active means falling FRET ratio curve, often poorly fitted, with flat reads before Ran was added; inconclusive means other falling curves, or compound fluorescence or quenching; inactive means flat or rising ratio curve;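 note: potency is the fitted concentration of half-maximal effect; % of control where 0% means no effect; nearly all actives have a fitted effect of over 45% in size; -100% = wells without RanGTP and RCC1; the record marks most hits as doubtful in a second field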
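FRET read at 45 min, room temperature: inhibitors block the CFP/YFP signal rise when RanGTP (0.6 uM Ran, 2 mM GTP, 0.2 uM RCC1) frees Rango (0.1 uM) from importin beta (0.25 uM). Pre-read after 5 min compound exposure flags interference.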
miR-21 reporter – miR-21 reporter, rising signal. HeLa miR-21 FLuc reporter, luciferase, 48 h. Potency, µM (highest dose often 38.3 µM), for inactives: at the top dose reporter change, positive = more light. 340,000 tested, under 10 active. AID 2288; active = well fitted rising curve with a large enough effect; inconclusive = small, poorly fitted or top-dose-only effect; inactive = no such curve, though single readings can be large or run the other way;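 note: % of control where 0% means no effect; miR-21 action dims this reporter so a rising signal means less miR-21 action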
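HeLa cells endogenously expressing miR-21, stably carrying CMV-driven firefly luciferase with a downstream miR-21 binding site, 2000 cells/well. Titrations up to approximately 40 uM, 48 hours; luciferase luminescence read.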
GLA inh pH 4.5 – blocks human alpha-galactosidase A at pH 4.5; P06280; purified enzyme, 4-MU-alpha-Gal fluorescence, pH 4.5; activity change, negative = inhibition, % at 105 µM; 230,000 tested, under 10 active; AID 1467; inconclusive = small, poorly fitted or top-dose-only inhibition, or a rising curve; inactive = flat fitted curve, though single readings scatter; no compound was filed as active;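 note: 0% = full activity with enzyme and -100% = basal without enzyme; dose as in the result columns while the protocol names 77 µM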
Rango complex inh – prevents formation of the Rango-importin beta complex. Rango CFP/YFP FRET sensor + importin beta, 45 min. Potency, µM (top dose mostly 92.2 µM), without a hit: at the highest dose inhibition of complex formation. AID 540263. 0.031% of 340,000 active; active = rising FRET ratio curve, often small or poorly fitted; inconclusive = mostly compound fluorescence or quenching in the first reads; inactive = flat curves in all reads;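 note: potency is the fitted concentration of half-maximal effect; 0% = DMSO wells and 100% = buffer wells lacking importin beta; nearly all actives have a fitted effect of over 15% in size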
Target sequence (Q14974 whole entry, looked up): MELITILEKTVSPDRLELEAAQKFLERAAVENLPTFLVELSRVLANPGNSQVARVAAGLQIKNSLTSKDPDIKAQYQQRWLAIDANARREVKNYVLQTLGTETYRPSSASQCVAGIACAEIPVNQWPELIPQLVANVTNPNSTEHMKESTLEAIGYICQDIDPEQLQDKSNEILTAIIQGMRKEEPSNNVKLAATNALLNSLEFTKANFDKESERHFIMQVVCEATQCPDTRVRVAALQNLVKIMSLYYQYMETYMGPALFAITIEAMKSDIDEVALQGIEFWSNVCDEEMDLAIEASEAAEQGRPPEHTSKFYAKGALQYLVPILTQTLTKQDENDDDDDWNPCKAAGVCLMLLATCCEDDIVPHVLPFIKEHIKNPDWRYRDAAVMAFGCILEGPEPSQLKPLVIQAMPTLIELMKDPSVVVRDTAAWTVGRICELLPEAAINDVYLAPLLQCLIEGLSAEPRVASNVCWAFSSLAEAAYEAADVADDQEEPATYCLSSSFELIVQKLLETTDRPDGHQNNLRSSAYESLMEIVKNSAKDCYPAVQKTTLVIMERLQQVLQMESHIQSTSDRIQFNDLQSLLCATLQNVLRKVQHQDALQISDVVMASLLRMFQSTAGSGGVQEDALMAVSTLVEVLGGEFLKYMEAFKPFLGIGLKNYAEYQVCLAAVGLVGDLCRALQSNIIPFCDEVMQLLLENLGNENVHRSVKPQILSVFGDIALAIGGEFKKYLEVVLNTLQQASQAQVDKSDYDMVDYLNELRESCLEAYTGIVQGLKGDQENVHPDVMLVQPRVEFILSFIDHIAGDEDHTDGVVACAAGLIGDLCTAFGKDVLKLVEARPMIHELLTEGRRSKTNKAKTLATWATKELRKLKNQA
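Inhibition scored from the CFP 486 nm/YFP 530 nm FRET ratio 45 min after adding 0.125 microM importin beta to 50 nM Rango biosensor preincubated 5 min with compound (room temperature, PBS with DTT, Tween-20, BSA). No-importin wells as positive control.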
* hit, by the source's call; u = inconclusive; x = not tested or not shown. Some of the compounds tested; the hit share may differ from the screen's.

SMILES	Rango dissoc inh	miR-21 reporter	GLA inh pH 4.5	Rango complex inh
COc1ccc(-c2[nH]ncc2CN2CCCC(C(=O)c3cccc(OC)c3)C2)cc1 (stereo not given)	1%	-4%	0	-2.2%
COc1ccc(CN2CCC(Oc3ccc(C(=O)N4CCCC4)cc3)CC2)c(F)c1	-1%	-3%	x	-0.7%
O=C1c2ccccc2C(=O)N1c1ccc(S(=O)(=O)N2CCCCC2)cc1	2%	-3%	x	0.9%
CC(C)Oc1ccccc1/C=N/NC(=O)C1CCCC1	5%	2%	x	-0.7%
CC(C)c1ccc(N2C(=O)C(Cl)=C(N3CCOCC3)C2=O)cc1	4%	3%	x	2.6%
O=C(COC(=O)c1ccc(Cl)s1)c1ccc[nH]1	11%	-1%	4	u
Cc1cc(-c2ccc(C)c(S(=O)(=O)N3CC(=O)Nc4ccccc43)c2)on1	u	2%	x	u
Cc1c(/C=N/NC(=O)c2ccc3c(c2)OCO3)cnn1C	u	-9%	0	0.6%
CCn1c(SCC(=O)Nc2ccc(OC)c(S(=O)(=O)N3CCCCC3)c2)nnc1C1CC1	-7%	x	x	3.8%
C=CCn1c2c(c(=O)[nH]c1=S)CN(C(C)c1ccccc1)CN2 (stereo not given)	21%	-2%	x	1.1%
CCn1c(SCC(=O)Nc2ccccc2F)nnc1-c1cnccn1	8%	-12%	x	-1.2%
Cc1ccc(N2C(=O)CC(NNc3nc4ccccc4s3)C2=O)cc1C (stereo not given)	1%	-4%	0	-0.1%
CN(Cc1nc2ccccc2c(=O)[nH]1)C(=O)c1cc(-c2ccc(Br)cc2)nc2ccccc12	-17%	x	x	-3.5%
CN(C)S(=O)(=O)N(CC(=O)N1CCN(c2ccccc2F)CC1)c1ccccc1	-2%	2%	-6	-0.6%
Cc1nc(N2CCOCC2)nc(OCCN(C)C)c1[N+](=O)[O-]	-5%	-3%	-1	-0.1%
O=C(Nc1cc(S(=O)(=O)Nc2ccc(Cl)cc2)ccc1O)c1ccc(F)cc1F	-4%	x	x	-2.5%
CC[C@]1(c2ccccc2OC)C(=O)N(C(=O)OC)N1C(=O)OC	-11%	5%	x	u
COc1ccc(-c2csc(NC(=O)C3CC(=O)N(c4ccc5c(c4)OCCO5)C3)n2)cc1 (stereo not given)	25%	20%	-11	-0.2%
O=C(CCN1C(=O)c2cccc3cccc(c23)C1=O)Nc1ccccc1	11%	-1%	4	-1.6%
O=C(Nc1cccc(S(=O)(=O)NCc2ccco2)c1)c1ccc(Cl)cc1	-1%	x	x	u
O=C(Cn1c(=O)oc2cc(S(=O)(=O)NCc3ccccc3)ccc21)NCc1ccco1	12%	17%	-12	-0.3%
O=C(CC1C(=O)NCCN1C(=S)Nc1ccccc1)Nc1ccc2c(c1)OCCO2 (stereo not given)	10%	2%	1	0.6%
Cc1ccc(C)c(-c2nnc(NC(=O)CS(=O)(=O)c3ccccc3)o2)c1	4%	x	x	-0.2%
COc1ccc(CCNC(=O)CCNC(=O)c2ccco2)cc1OC	2%	-7%	x	1.1%
O=C(NCc1ccco1)/C(=C/c1cccnc1)NC(=O)c1ccco1	1%	-1%	8	-0.7%

(further entries)
SMILES	Rango dissoc inh	miR-21 reporter	GLA inh pH 4.5	Rango complex inh
O=C(NCC1CCCO1)C1CCN(C2CCN(C(=O)Cc3ccsc3)CC2)CC1 (stereo not given)	-14%	-3%	-1	-4.7%
CCOc1ccc(/C=N/N2C(=O)C(CC(=O)Nc3ccc(F)cc3F)SC2=NC)cc1OC (stereo not given)	-4%	-5%	-21	3.1%
Cn1c(Oc2ccc(Cl)cc2)c(C=O)c2ccccc21	4%	17%	-2	1.4%
CC(=O)Oc1ccccc1/C=C1\CCOC1=O	0%	-8%	-16	-1.8%
Cc1c(C(=O)Nc2cccnc2Cl)oc2ccccc12	11%	-56%	x	-4.5%
COc1ccc(C(C)=O)cc1COC(=O)CNC(=O)c1cc(C)cc(C)c1	-6%	0%	-2	-2.8%
O=C(N/N=C/c1cc2c(cc1Cl)OCO2)c1cc(-c2ccccc2)n[nH]1	9%	-4%	x	-1.5%
CC(NC(=O)CN1CCN(CC(=O)Nc2ccccc2Cl)CC1)c1ccc(Br)cc1 (stereo not given)	12%	x	x	3.1%
Cc1c(NC(=O)CN2C(=O)C(=O)N(Cc3ccccc3)C2=O)c(=O)n(-c2ccccc2)n1C	-2%	0%	-4	0.0%
CC(=N\O)/C(CN(C)C)=N/O	18%	0%	0	0.9%
Cc1c([N+](=O)[O-])c2ccc(O)cc2n1-c1ccccc1	u	11%	-15	5.5%
Cc1ccc(-c2nc3ncccc3o2)cc1NC(=O)c1ccccc1	6%	-3%	-5	-2.0%
COc1cc(C(=O)NC(c2ccccc2)c2ccccc2)cc(OC)c1C	13%	4%	x	0.6%
CC(C)Nc1nc(Oc2ccc(=O)n(-c3ccccc3)n2)nc(N(C)C)n1	-13%	-5%	-1	2.7%
CCc1c(O)nc(N2CCN(Cc3ccccc3)CC2)[nH]c1=O	6%	3%	-1	0.8%
CCCCc1ccc(NC(=S)NCc2cccs2)cc1	1%	-5%	1	0.5%
CC(C)N(Cc1nccn1C)C(=O)c1cc(COc2ccc(F)cc2Cl)on1	-7%	-3%	x	3.3%
CCC(C)Nc1nc(-c2c[nH]c3ccccc23)cs1 (stereo not given)	u	3%	x	u
CC(=O)Nc1ccc(NC(=O)C(C)OC(=O)CNS(=O)(=O)c2ccc(Br)cc2Cl)cc1 (stereo not given)	10%	-2%	x	0.7%
CCOc1ccc(C(=O)/C=C/c2cc(OC)c(OC)c(OC)c2)cc1	3%	u	-6	-1.6%
Cc1ccccc1Nc1nnc(SCc2cc(=O)n3ccsc3n2)s1	3%	-23%	7	1.3%
COc1ccc(C(=O)CSc2n[nH]c(N)n2)cc1	-11%	-6%	-8	-5.2%
CCNS(=O)(=O)c1ccc(C(=O)OCc2cc(=O)oc3cc(OC)ccc23)cc1	-7%	-6%	x	3.1%
C#CCOCCOCCOCCNc1nc(N2CCN(C(=O)[C@H](CCCCN)n3cc(CN)nn3)CC2)nc(N2CCN(C(=O)[C@H](CCCCN)n3cc([C@@H](N)CC(N)=O)nn3)CC2)n1	-5%	x	x	0.9%
COc1ccc(S(=O)(=O)N2CCC(C(=O)NCc3ccccc3)CC2)cc1OC	0%	0%	0	-1.7%

One compound at a time (already shown). Screens in order: Rango dissoc inh	miR-21 reporter	GLA inh pH 4.5	Rango complex inh
Cc1c(C(=O)Nc2cccnc2Cl)oc2ccccc12 across the screens: 11%	-56%	x	-4.5%
CC(=O)Nc1ccc(NC(=O)C(C)OC(=O)CNS(=O)(=O)c2ccc(Br)cc2Cl)cc1 (stereo not given) across the screens: 10%	-2%	x	0.7%

Remaining list, next part.
SMILES	Rango dissoc inh	miR-21 reporter	GLA inh pH 4.5	Rango complex inh
COc1cccc(C(=O)COC(=O)c2cccs2)c1	10%	-35%	x	-2.3%
Cc1ccc(N(CC(=O)Nc2ccc(C)cc2C)S(=O)(=O)N2CCCC2)cc1	5%	6%	3	0.5%
Cc1ccc(CNC(=O)CCNC(=O)c2ccco2)cc1	4%	-21%	5	-1.1%
COc1cc2cc(C(=O)N3CCc4ccccc4C3)[nH]c2cc1OC	u	-6%	x	u
CC(C)C(O)(CC#CCN1CCCC1)c1ccccc1 (stereo not given)	0%	2%	-7	-0.9%
CN(C)C(CNC(=O)CSC(=S)N1CCCC1)c1ccccc1 (stereo not given)	-1%	x	x	1.7%
CC(OC(=O)CNS(=O)(=O)c1ccc2ccccc2c1)C(=O)N(C)c1ccccc1 (stereo not given)	-16%	3%	x	-0.1%
CC[C@]12c3[nH]c4ccccc4c3CCN1C(=O)C(CC(=O)NCc1ccco1)C[C@@H]2C(=O)N1CCN(C(=O)C2CC2)CC1 (stereo not given in full)	4%	x	x	-1.5%
CC1=CC(C)(C)n2c(O)c(N=N)c3c(C)c(C)cc1c32	4%	-8%	-9	2.3%
C=CCc1cccc(CNc2c(C)n(C)n(-c3ccccc3)c2=O)c1O	13%	17%	4	0.5%
Cc1ccc(C(=O)NNC(=O)c2ccc3ccccc3c2)cc1	-15%	x	x	-2.5%
Oc1cccc2ccc(N3CCOCC3)nc12	-6%	-33%	x	-3.6%
Cc1ccc(CS(=O)Cc2ccc(C(=O)N3CCN(c4ccccn4)CC3)o2)cc1 (stereo not given)	-23%	15%	x	-2.3%
O=C(COC(=O)CNC(=O)c1ccc(Cl)cc1Cl)Nc1cccc(S(=O)(=O)N2CCCC2)c1	-20%	x	x	0.7%
CCC1CCCCN1C(=O)c1cccc(S(=O)(=O)Nc2cc(C(F)(F)F)ccc2Cl)c1 (stereo not given)	-2%	-5%	-5	0.5%
O=C(NCC1CCCN(Cc2ccc3nonc3c2)C1)c1cccc(C(F)(F)F)c1 (stereo not given)	17%	2%	-2	-0.2%
CC1(c2ccc(OC(F)F)cc2)NC(=O)N(CC(=O)NCCC2=CCCCC2)C1=O (stereo not given)	32%	x	x	-3.2%
Cc1ccc(S(=O)(=O)N(C)CCCC(=O)Nc2ccccn2)cc1	2%	x	x	-2.2%
COc1cc(NC(=S)NC(=O)c2ccccc2C)ccc1NC(=O)c1cccs1	-2%	0%	-6	-1.0%
Cn1cc(S(=O)(=O)N2CCN(c3ccccc3)CC2)c(=O)n(C)c1=O	-13%	-4%	5	0.4%
CC12CCC(=O)N1C(C(=O)NNC(=O)c1cccc(Cl)c1)CS2 (stereo not given)	4%	x	x	-3.5%
CCOC(=O)c1ccc(NC(=S)N(Cc2cccnc2)Cc2ccco2)cc1	3%	5%	-2	-6.8%
O=C(NNc1cccc(Cl)n1)Nc1ccccc1Cl	11%	-8%	4	-1.9%
c1ccc(Cn2nnc3c(NCc4ccc5c(c4)OCO5)nc(C4CC4)nc32)cc1	-6%	2%	-1	0.6%
O=C(Cc1ccccc1)NCC(=O)N1CCC1	20%	1%	x	2.8%

The list goes on.
SMILES	Rango dissoc inh	miR-21 reporter	GLA inh pH 4.5	Rango complex inh
COc1ccccc1CC(=O)N1CCN(c2ccccc2)CC1	19%	-6%	x	0.4%
CN(C)C(=O)c1cc(C(=O)c2ccccc2F)c[nH]1	9%	-20%	x	1.4%
COc1ccc(Cl)cc1N1C(=O)C2CCCN2C1c1cccc(F)c1 (stereo not given)	6%	-21%	-3	0.1%
CCCCNC(=S)NNC(=O)c1csc(CC)c1	10%	-32%	4	-1.0%
CC(=O)Nc1cccc(NC(=O)/C=C/c2ccc(S(=O)(=O)N3CCOCC3)cc2)c1	1%	x	x	0.6%
Clc1cccc(CSc2ncnc3c2ncn3C2CCCCO2)c1 (stereo not given)	6%	x	x	4.2%
COc1ccc(-n2c(Cc3cccn3C)nnc2SCC(=O)Nc2nccs2)cc1	0%	-7%	-9	-1.2%
C=CCNCc1cccn1-c1ccccc1	-27%	-4%	1	-1.2%
O=S(=O)(c1ccccc1Br)N(Cc1ccccc1)CC(O)COCc1ccccc1 (stereo not given)	9%	x	x	5.3%
CCOc1ccc(NC(=O)CN2CC(c3ccccc3)CC2=O)cc1 (stereo not given)	-4%	-4%	1	-1.1%
Cc1ccc(N(Cc2cc3ccc(C)cc3[nH]c2=O)S(C)(=O)=O)c(C)c1	-2%	-5%	-17	-11%
c1c2c(cc3sc(N4CCOCC4)nc13)OCCO2	8%	5%	4	-0.3%
O=C(CCCn1c(=S)[nH]c2ccc(Br)cc2c1=O)NCC1CCCO1 (stereo not given)	12%	0%	0	-0.3%
CC(=O)C1=C(O)C(=O)N(CCCn2ccnc2)C1c1ccc(C)cc1 (stereo not given)	-4%	-2%	-11	0.8%
CCc1nnc(NC(=O)CN2CCN(Cc3ccc(C)cc3)CC2)s1	7%	2%	x	0.8%
Cc1ccc(Nc2cc(C)nc3ccccc23)c(C)c1	1%	x	x	0.7%
O=C(c1ccco1)N1CCCN(Cc2nc(Cc3ccccc3)no2)CC1	23%	-5%	-18	1.4%
N/C(=N\OC(=O)CC1CCCCC1)c1cccc([N+](=O)[O-])c1	57%	-15%	4	3.4%

Ordered by molar mass (rising): 3 of the compounds above.
SMILES	Rango dissoc inh	miR-21 reporter	GLA inh pH 4.5	Rango complex inh
N/C(=N\OC(=O)CC1CCCCC1)c1cccc([N+](=O)[O-])c1	57%	-15%	4	3.4%
CCOc1ccc(NC(=O)CN2CC(c3ccccc3)CC2=O)cc1 (stereo not given)	-4%	-4%	1	-1.1%
CC(=O)Nc1cccc(NC(=O)/C=C/c2ccc(S(=O)(=O)N3CCOCC3)cc2)c1	1%	x	x	0.6%
